# Compound activity from PubChem BioAssay.
# UUG fidelity: alters start codon recognition fidelity in yeast. S. cerevisiae UUG-firefly luciferase reporter, luminescence/redox ratio. activity score, % at 18.7 µM. 0.13% of 350,000 active;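 active = replicate mean at a twofold rise or more, about +100% in these data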;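 note: firefly luciferase made from a UUG start codon reports start codon fidelity; reporter light over untreated wells divided by growth signal over untreated wells; some hits fall short of that in this replicate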
# CSC inhib: blocks cancer stem cells; cancer stem cell-like cells viability, luminescence; inhibition, % at 7.5 µM; 1.1% of 300,000 active;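 active = mean at 75% or more and at least half the replicates too; inconclusive = mean and replicates disagree; tested in HMLE shEcad cells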;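 note: 0% = median of negative and 100% = median of positive control wells; the first replicate is given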
# Rce1 inhib: yeast Ras-converting enzyme inhibition | 0.27% of 290,000 active | AID 2563 | yeast membranes, quenched prenylated peptide cleavage fluorescence | calls only | Q03530;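 active = fall in fluorescence gain of 50% or more versus controls, with final raw signal at or below 3038400; inconclusive = same 50% fall but final raw signal above 3038400; inactive = fall in fluorescence gain under 50%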;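 note: plate controls were neutral control wells for no effect and wells lacking membranes for full effect; tested at 10 µM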
# Target sequence (Q03530 whole entry, looked up): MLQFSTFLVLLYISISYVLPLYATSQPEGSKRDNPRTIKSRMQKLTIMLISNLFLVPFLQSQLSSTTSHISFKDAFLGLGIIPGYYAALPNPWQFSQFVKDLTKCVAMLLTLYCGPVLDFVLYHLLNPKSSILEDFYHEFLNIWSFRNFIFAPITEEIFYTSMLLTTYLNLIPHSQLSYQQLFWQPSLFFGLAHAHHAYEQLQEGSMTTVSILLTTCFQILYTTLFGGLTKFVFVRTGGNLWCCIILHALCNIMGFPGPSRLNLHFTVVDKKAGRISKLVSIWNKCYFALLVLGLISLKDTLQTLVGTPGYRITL
# MT1-MMP act inh: MT1-MMP (human) activation inhibition; AID 651647; GFP/RFP ratio change, % at 20 µM; HT1080 RFP-PRO-GFP cells, GFP/RFP ratio fluorescence, overnight; percent of plate control window, DMSO zero; 0.061% of 360,000 active;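 active = GFP/RFP ratio change of at least 30% with cell ATP level not reduced by more than half and red fluorescence within 50% of control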; note: strong numbers were not always called active
#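 Assay system: RFP-PRO-GFP reporter HT1080 cells; read-out basis: GFP/RFP fluorescence ratio; benchmarks: DMSO wells and RFP-L50D-GFP cells; doses: 20 µM single dose, 1% DMSO; schedule: overnight cell settling, then overnight compound exposure, 37 °C, 5% CO2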
# HIV Env fusion: blocks HIV Env-driven cell-cell fusion. HeLa-JRFL Env/CEM21 cell fusion, luciferase. inhibition, % at 12.3 µM. 1.1% of 360,000 active. AID 651610;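 active = mean replicate inhibition score of at least 50 and every replicate individually at or above 50; inconclusive = only one of the two criteria met; inactive = mean below 50 and not all replicates reaching 50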;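 note: 0% = plate neutral controls and 100% = maraviroc near 300 nM; one replicate is shown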
# eIF4H FP inh: inhibitors of RNA binding by human eIF4H. Q15056. eIF4H fluorescence polarization binding assay. inhibition, % at 35 µM. 0.94% of 290,000 active. AID 2012;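 active = 50% or more with normal probe brightness, or confirmed in later tests; inconclusive = above 50% with abnormal brightness, or retests that disagree; inactive = below 50% or failed in later tests; about a fifth of its hits are not listed in these tables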;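 note: calls also rest on retests at 20 µM and on dose response follow-up; 0% = protein and probe with vehicle and 100% = probe without protein; strong numbers were not always called active; many hits fall short of the cut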
# PABP polyA inh: blocks human PABP binding to poly(A) RNA; P11940; fluorescence polarization; inhibition, % at 35 µM; 1% of 290,000 active;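 active = 50% or more with normal probe brightness, or confirmed in later tests; inconclusive = above 50% with abnormal brightness, or retests that disagree; inactive = below 50% or failed in later tests; about a fifth of its hits are not listed in these tables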;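 note: calls also rest on retests at 20 µM and on dose response follow-up; controls were probe without protein and protein plus probe with vehicle; some compounds called inactive have numbers as strong as hits; many hits fall short of the cut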
# Target sequence (P11940 whole entry, looked up): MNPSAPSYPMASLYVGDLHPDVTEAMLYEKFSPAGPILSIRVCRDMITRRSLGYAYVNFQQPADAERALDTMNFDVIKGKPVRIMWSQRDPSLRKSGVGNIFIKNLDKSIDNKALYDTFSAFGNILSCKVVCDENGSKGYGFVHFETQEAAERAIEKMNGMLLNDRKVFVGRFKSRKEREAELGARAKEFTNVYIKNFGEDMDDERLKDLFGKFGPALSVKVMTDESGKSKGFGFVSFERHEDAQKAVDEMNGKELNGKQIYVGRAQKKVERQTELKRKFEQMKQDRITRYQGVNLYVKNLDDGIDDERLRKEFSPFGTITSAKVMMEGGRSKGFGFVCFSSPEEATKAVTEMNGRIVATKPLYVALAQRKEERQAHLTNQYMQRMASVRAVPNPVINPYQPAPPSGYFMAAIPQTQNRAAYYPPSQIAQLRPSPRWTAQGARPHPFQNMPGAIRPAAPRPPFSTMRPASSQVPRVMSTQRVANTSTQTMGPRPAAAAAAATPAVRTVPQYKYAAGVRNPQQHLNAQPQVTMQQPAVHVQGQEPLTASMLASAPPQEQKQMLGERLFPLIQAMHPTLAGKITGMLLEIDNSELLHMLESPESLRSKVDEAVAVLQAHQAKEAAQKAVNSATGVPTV
# MT1-MMP act inh RFP: recorded beside MT1-MMP act inh, whose call it bears; RFP signal change, %; measured here: RFP expression control read;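 0 = vehicle wells; hits needed this value within 50% of zero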
# Starred values were filed as active, the others as inactive; i = inactive; ? = inconclusive; . = no result given.
# Start of the data: the first 3 entries (preview)
SMILES,UUG fidelity,CSC inhib,Rce1 inhib,MT1-MMP act inh,MT1-MMP act inh RFP,HIV Env fusion,eIF4H FP inh,PABP polyA inh
O=C(CCC(=O)N1CCOc2ccccc21)Nc1ccccc1Cl,-4.3,-4.4,i,3.4,1.2,5.6,-5.7,1.0
COc1cc(C2CC(=O)N(CC(=O)NCC3CCCO3)c3ccccc3S2)cc(OC)c1OC (configuration not stated),9.0,-7.2,i,-1.8,-2.0,-12.6,-2.7,17.0
O=C(CC(c1ccccc1)c1ccccc1O)NCCc1ccccc1 (configuration not stated),-17.0,-0.8,i,0.8,-1.7,24.1,-13.6,-6.0

# The whole of this part, from the start:
SMILES,UUG fidelity,CSC inhib,Rce1 inhib,MT1-MMP act inh,MT1-MMP act inh RFP,HIV Env fusion,eIF4H FP inh,PABP polyA inh
O=C(CCC(=O)N1CCOc2ccccc21)Nc1ccccc1Cl,-4.3,-4.4,i,3.4,1.2,5.6,-5.7,1.0
COc1cc(C2CC(=O)N(CC(=O)NCC3CCCO3)c3ccccc3S2)cc(OC)c1OC (configuration not stated),9.0,-7.2,i,-1.8,-2.0,-12.6,-2.7,17.0
O=C(CC(c1ccccc1)c1ccccc1O)NCCc1ccccc1 (configuration not stated),-17.0,-0.8,i,0.8,-1.7,24.1,-13.6,-6.0
COc1ccc(C2=NCCn3c2c2ccc(C(F)(F)F)cc2[n+]3[O-])cc1,-3.8,-13.3,i,1.0,-0.4,-11.6,.,.
O=S(=O)(NCc1c(Cl)cccc1Oc1ccccc1)c1ccccc1,-2.6,-5.8,i,-1.7,-8.4,10.3,-0.5,9.7
Cn1c(=O)n(C)c2cc(NC(=O)CSc3nc4ccccc4c(=O)[nH]3)ccc21,.,0.3,i,2.5,2.0,-0.1,1.0,-0.6
COc1ccc(C2=CC(=O)C[C@H](c3ccc4c(c3)OCO4)C2)cc1,-1.7,-0.2,.,6.2,-2.3,.,.,.
CCCC(C(=O)NC(C)(C)C)N(C(=O)c1snc(C(N)=O)c1N)c1ccc2c(c1)OCCO2 (configuration not stated),.,0.7,i,-0.2,3.6,4.1,3.3,3.4
O=C(CNS(=O)(=O)c1ccccc1)N/N=C\c1ccc(Cl)cc1,-16.2,-0.4,i,-1.2,-0.5,23.8,6.2,12.5
COc1ccc(-c2ccc3oc(-c4ccsc4)cc(=O)c3c2)cc1F,-7.0,-2.5,.,9.2,3.6,-36.0,.,.
COc1ccc(S(=O)(=O)N2CCCCCC2)cc1C(=O)OCc1c(C)noc1C,-9.1,5.3,.,0.9,2.5,.,-5.7,-2.8
OCC[C@@H]1C[C@@H](O)[C@H](O)[C@]2(CCc3ccccc3O2)O1,-21.2,-2.9,i,-2.0,6.0,-9.0,14.7,3.0
O=C(/C=C/c1ccc2c(c1)OCO2)NCc1ccncc1,-17.8,-3.1,i,-2.3,-1.5,-0.4,0.5,-1.6
COc1ccc(S(=O)(=O)N2CCN(C3CCN(Cc4ccccc4)CC3)CC2)cc1,-16.0,-5.7,i,-1.2,-6.2,.,7.5,-5.0
CC1CCN(C(=O)c2ccc(COc3ccccc3Cl)o2)CC1,11.2,2.7,i,-2.0,-2.9,.,4.8,6.7
Cc1ccc(N2C(=O)C3C(c4ccccc4)N4CCCN4C3(C)C2=O)cc1 (configuration not stated),.,-5.0,i,-5.7,1.7,.,-5.0,12.4
Cc1nc2ccc(C(=O)N/N=C/c3cc([N+](=O)[O-])ccc3O)cc2[nH]1,-24.6,.,i,2.3,9.2,12.8,13.3,-6.7
COC(=O)c1cc(NC(=O)CN(c2ccc3c(c2)OCO3)S(C)(=O)=O)ccc1Cl,-5.1,2.0,i,-1.9,1.7,.,-8.0,-8.3
COc1ccccc1NC(=O)C1CCCN(S(=O)(=O)c2ccc3[nH]c(=O)ccc3c2)C1 (configuration not stated),6.4,-0.2,i,-0.1,-7.3,-8.6,-0.1,-12.6
CC(=O)c1ccccc1OC(=O)c1c(F)cccc1F,.,-11.0,i,-0.3,7.4,7.0,-7.5,5.6
O=C(O)c1ccccc1C(=O)NNc1ccc(Cl)cc1,-37.6,91.1*,i,2.0,4.2,-8.1,-9.0,11.7
O=S(=O)(c1ccccc1)N1CCN(S(=O)(=O)N2CCCCC2)CC1,-13.0,2.1,i,-3.4,3.7,-31.1,-11.8,-5.8
CCOC(=O)c1ccc(NC(=O)NC(C)C2CCCO2)cc1 (configuration not stated),-8.8,-9.6,i,8.8,-3.0,-13.2,3.5,-5.5
Cn1c(=O)n(C)c2cc([N+](=O)[O-])c(N3CCN(C(=O)c4ccc(Cl)cc4)CC3)cc21,.,-10.7,i,12.4,-10.6,.,-15.5,-1.7
CC(C)CCNC(=O)C(=O)Nc1ccccc1,-6.3,-8.7,i,-3.3,-2.4,-36.0,1.6,-15.7
Cc1coc2c1c(C)cc1oc(=O)c(CC(=O)NCC(=O)N[C@H](C(=O)O)C(C)C)c(C)c12,-13.2,-12.3,i,0.8,3.3,0.7,-2.7,15.2
COc1ccc(S(=O)(=O)N2CCCN(CC(=O)C(C)(C)C)CC2)cc1,3.5,11.6,i,-4.6,-6.0,-44.6,-4.1,-6.5
NS(=O)(=O)c1ccc(CCNC(=O)CSc2ccc(Cl)cc2Cl)cc1,.,-8.4,i,2.4,-0.8,-0.7,1.2,4.6
CCCCC(=O)NNC(=S)NC(=O)CCC,-50.4,-0.6,i,3.2,2.7,.,13.3,-4.9
O=S(=O)(c1c(F)cccc1F)C1CCN(S(=O)(=O)c2ccc3c(c2)OCCO3)CC1,-9.0,.,.,-3.0,-2.3,10.8,.,.
O=C1C=C(N2CCCCCC2)C(=O)N1c1ccc(Cl)cc1,-25.7,-1.8,i,2.4,2.7,-123.5,0.6,-6.2
COc1cc(C=O)ccc1OC(=O)c1ccncc1,.,-11.6,.,0.0,2.8,20.9,-4.8,5.7
Cc1cc(C)c(NC(=O)COC(=O)CCc2ccc(S(=O)(=O)N3CCCCC3)cc2)c(C)c1,.,0.2,i,2.0,2.3,9.0,-5.3,0.1
CC(C)c1ccc2c(c1)C1(NN=C(c3ccccc3)S1)C(=O)N2 (configuration not stated),-10.8,116.1*,i,-23.2,-22.6,.,-8.7,-6.9
Cn1cc(C(=O)NCCN2CCN(c3cccc(Cl)c3)CC2)c2c3ccccc3n(C)c2c1=O,31.3,14.6,i,0.5,-8.1,?,3.6,11.8
CC(C)COc1ccc(CN=C(N)N=C(N)N)cc1Cl,-11.8,18.4,i,-15.0,-11.4,12.7,-3.0,-10.5
CN(C)S(=O)(=O)c1cc(NC(=O)CNCCN2CCOCC2)ccc1Cl,-5.4,2.0,i,1.2,4.4,-42.6,-13.4,12.2
C=CCSc1nc2c(c(=O)[nH]c(=O)n2C)n1Cc1ccc(C)cc1,-13.1,-3.3,i,0.1,-13.2,19.8,2.4,-7.0
Cc1[nH]nc(SCC(=O)N2CCC(C)CC2)c1[N+](=O)[O-],.,-7.9,i,-5.4,1.4,-11.9,2.4,-8.5
O=C(O)C1(P(=O)(c2ccc(Cl)cc2)c2ccc(Cl)cc2)CCCC1,.,.,i,-5.5,3.5,1.4,-0.3,0.3
Nc1ccc(CN2CCCCCC2)cc1,-8.7,-10.2,i,2.3,4.8,.,5.4,3.1
COC(=O)c1ccc(NC(=O)CN2C(=O)CSC2=O)cc1,-7.5,-3.7,i,.,.,5.7,0.9,13.8
Cc1cc(=O)oc2c(C)c(OCC(=O)N3CCN(c4ccccc4)CC3)ccc12,5.1,-2.5,i,3.2,0.8,0.2,-6.0,6.3
CC(O)c1cccc(NC(=O)C2CCCCC2)c1 (configuration not stated),-16.6,3.3,i,0.9,-0.5,1.6,-2.6,5.0
Cc1ccc(NC(=S)N(CCCN2CCCC2)Cc2cccn2Cc2ccc(Cl)cc2)cc1C,-22.6,69.9,i,0.4,-1.5,5.3,-6.5,-6.1
COC(=O)N1[C@H](C)C=C[C@]1(Cc1ccccc1)C(=O)OC,12.7,-4.5,i,3.6,1.0,10.0,.,.
CCOC(=O)c1c(NC(=O)CSc2nnc(Cc3ccccc3)o2)sc(C(C)=O)c1C,.,-17.2,i,-6.4,-4.7,10.4,3.0,-6.6
COc1ccc(-c2nnc(N(C)C(=O)c3ccco3)s2)cc1OC,-9.6,-12.7,i,-0.9,-5.0,-10.4,-4.9,2.4
COc1ccc(/C=C(/CC(=O)Nc2ccc(C)cc2)c2nc3ccccc3s2)cc1,-21.4,7.6,i,-2.8,-3.6,7.4,-2.2,-0.2
Cc1c(Br)c([N+](=O)[O-])nn1CC(=O)Nc1ccc(CC#N)cc1,.,1.3,i,.,.,.,-1.5,-7.7
COc1ccc(NC(=O)CCN2C(=O)c3ccncc3C2=O)cc1OC,-8.2,-15.6,i,3.8,-0.8,3.3,0.1,-0.5
COC(=O)c1ccc(SC2CCCCC2)c([N+](=O)[O-])c1,-19.9,13.2,i,-23.0,-6.1,-15.9,1.5,1.8
CCOC(=O)C1CCN(C(=O)CSc2ccc(Br)cc2)CC1,.,-7.3,i,1.2,0.2,5.4,-10.9,5.3
CCCn1c(N)c(C(=O)CSc2nc(N)cc(=O)[nH]2)c(=O)n(C)c1=O,-9.6,-9.1,.,2.2,-0.9,-2.9,.,.
Fc1cccc(Cl)c1Cn1nnc2c(NCc3ccncc3)ncnc21,-8.5,-3.3,i,-2.9,-18.6,24.4,-4.5,-2.2
O=S(=O)(c1ccc(Cl)cc1)N1CCCCCC1,-12.2,7.7,i,2.0,0.1,-5.5,-13.1,5.0
COc1ccc(CCNC(=S)N2CCC(C(=O)c3ccc(F)cc3)CC2)cc1OC,-17.6,6.9,.,-3.1,-25.5,20.5,-6.3,0.3
CC(C)(C)CC(=O)Nc1nnc(SCC(=O)NC2CCCCC2)s1,-21.7,-10.3,i,0.7,-3.8,13.5,0.1,-0.2
Cc1c(Cl)cccc1N(CC(=O)NC(C)c1ccccc1)S(C)(=O)=O (configuration not stated),-9.9,-9.2,i,3.4,0.8,-10.8,-5.5,3.9
O=c1c2ccccc2cnn1Cc1cccc(Br)c1,.,8.0,i,-0.8,-0.1,12.9,-11.4,-1.0

# (continued)
SMILES,UUG fidelity,CSC inhib,Rce1 inhib,MT1-MMP act inh,MT1-MMP act inh RFP,HIV Env fusion,eIF4H FP inh,PABP polyA inh
C=CCn1c(N)c(C(=O)OCC(C)C)c2nc3ccccc3nc21,-3.0,.,i,-24.6,1.2,.,1.6,10.9
O=C(CC1(O)C(=O)Nc2ccccc21)c1ccc(-n2cccc2)cc1 (configuration not stated),-8.6,17.1,i,6.6,4.5,-114.5,-1.2,-3.2
Cc1cccc(N2CCN(C(=O)c3oc4ccc(Br)cc4c3C)CC2)c1C,-23.1,28.5,.,6.5,2.0,.,.,.
Cc1ccc(C)c(N2CCN(C(=O)C3CCCCN3S(=O)(=O)c3ccc(F)cc3)CC2)c1 (configuration not stated),-10.9,4.7,i,-22.0,-23.6,.,-2.1,-10.6
CCOc1ccc(C2C(C(N)=O)=C(C)Nc3ncnn32)cc1OC (configuration not stated),-22.9,3.2,i,0.6,3.5,21.1,-2.9,-3.0
COc1cccc(NS(=O)(=O)c2ccc3c(c2)n(C)c(=O)c(=O)n3C)c1,-7.9,-1.1,i,3.3,2.7,41.3,5.3,3.4
Cc1cccc(Oc2nc(-c3ccccc3)cc(C)c2S(C)(=O)=O)c1C,.,32.6,i,-9.3,-7.1,.,1.8,-5.7
COc1ccc(CN2CCc3c([nH]c4ccccc34)C2)c(OC)c1C,-16.5,23.9,.,-5.2,-1.6,11.1,-3.9,14.2
